Screening data: PubChem BioAssay, Broad Institute
MLL AF4-AF9 inh: inhibitors of human MLL-AF4/AF9 interaction; P42568; AlphaScreen, biotin-AF4 peptide binding to FLAG-AF9; inhibition, % at 10 µM; 350,000 tested, 0.47% active; AID 651704;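 active means every replicate reaching a set inhibition limit, whatever the replicate mean, cut at about 25% in these data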;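 further: 0% = plate neutral control median and 100% = total signal loss; the record names both 10 and 1 µM as test concentration; the first replicate is given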
Target sequence (P42568 whole entry, looked up): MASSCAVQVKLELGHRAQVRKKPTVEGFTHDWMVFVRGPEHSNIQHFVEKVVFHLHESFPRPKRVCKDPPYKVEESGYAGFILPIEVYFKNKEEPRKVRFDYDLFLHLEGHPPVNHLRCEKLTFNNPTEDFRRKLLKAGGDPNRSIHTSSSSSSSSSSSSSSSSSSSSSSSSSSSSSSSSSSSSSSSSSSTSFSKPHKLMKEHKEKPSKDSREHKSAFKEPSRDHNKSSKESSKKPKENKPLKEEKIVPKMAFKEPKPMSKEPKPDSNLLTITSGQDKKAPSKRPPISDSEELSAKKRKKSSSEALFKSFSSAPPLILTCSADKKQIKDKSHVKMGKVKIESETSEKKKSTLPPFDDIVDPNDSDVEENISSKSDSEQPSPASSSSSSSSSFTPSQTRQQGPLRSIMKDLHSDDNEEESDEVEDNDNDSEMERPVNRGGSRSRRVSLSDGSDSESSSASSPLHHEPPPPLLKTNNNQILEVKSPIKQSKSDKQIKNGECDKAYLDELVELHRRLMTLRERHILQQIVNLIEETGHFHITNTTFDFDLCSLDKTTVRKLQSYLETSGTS
FGF22 binding: binders of recombinant human FGF22 by thermal shift. SYPRO orange fluorescence; percent of sucrose octasulfate shift, DMSO zero. calls only at 9.99 µM. 340,000 tested, 1.5% active;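 active means melting point raised past a set limit in the mean and every replicate; three in four hits are not shown here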
Target sequence (Q9HCT0 whole entry, looked up): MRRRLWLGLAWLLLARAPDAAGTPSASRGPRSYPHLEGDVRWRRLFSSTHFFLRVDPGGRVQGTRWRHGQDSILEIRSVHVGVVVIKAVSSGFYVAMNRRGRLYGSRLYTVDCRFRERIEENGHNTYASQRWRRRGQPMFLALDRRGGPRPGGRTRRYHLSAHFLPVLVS
Numbers without * were called inactive; & = joins results of further samples. The list is partial, so the mix of outcomes need not match the whole.

How did Cc1noc(C)c1NC(=O)Nc1cccc2c1O[C@H](CN(C)Cc1ccc3c(c1)OCO3)[C@@H](C)CN([C@@H](C)CO)C2=O do in these assays?
MLL AF4-AF9 inh: -0.1; FGF22 binding: inactive

What do the screens show for `COc1ccc(S(=O)(=O)N(C)C[C@H]2OCc3cnnn3CCCC(=O)N([C@@H](C)CO)C[C@@H]2C)cc1`?
MLL AF4-AF9 inh: -0.5; FGF22 binding: inactive

What do the screens show for `C[C@@H]1CN([C@H](C)CO)C(=O)Cc2cc(NC(=O)Nc3ccccc3)ccc2O[C@H]1CN(C)Cc1ccccc1`?
MLL AF4-AF9 inh: 0.2; FGF22 binding: inactive

What do the screens show for `COc1cccc(S(=O)(=O)N(C)C[C@@H]2Oc3ncc(-c4ccccc4)cc3C(=O)N([C@H](C)CO)C[C@@H]2C)c1`?
MLL AF4-AF9 inh: 0.6; FGF22 binding: inactive

What do the screens show for `CCS(=O)(=O)NCC[C@H]1CC[C@H](NC(=O)C2CCC2)[C@H](CO)O1`?
MLL AF4-AF9 inh: -5.7; FGF22 binding: inactive

How did Cc1noc(C)c1NC(=O)N(C)C[C@@H]1OCCCC[C@H](C)Oc2ccc(NC(=O)CCC(F)(F)F)cc2C(=O)N([C@H](C)CO)C[C@@H]1C do in these assays?
MLL AF4-AF9 inh: 0.5; FGF22 binding: inactive

What do the screens show for `CCC(=O)N(C)C[C@H]1Oc2cc(C#CC3(O)CCCC3)ccc2S(=O)(=O)N([C@H](C)CO)C[C@H]1C`?
MLL AF4-AF9 inh: -1.1; FGF22 binding: inactive

What do the screens show for `CC=Cc1ccc2n(c1=O)C[C@@H]1[C@@H](CO)[C@H](C(=O)NCC3CC3)N(CC3CCOCC3)[C@H]21` (mixture of isomers)?
MLL AF4-AF9 inh: -0.7; FGF22 binding: inactive

What do the screens show for `CO[C@H]1CN(C)C(=O)c2ccc(NC(=O)C3CC3)cc2OC[C@@H](C)N(Cc2cccnc2)C[C@@H]1C`?
MLL AF4-AF9 inh: -2.6; FGF22 binding: inactive

How did O=C(C[C@H]1C=C[C@H](NC(=O)C2CCC2)[C@@H](CO)O1)NCCCN1CCOCC1 do in these assays?
MLL AF4-AF9 inh: 0.1; FGF22 binding: inactive

Results for COCC(=O)Nc1ccc2c(c1)C(=O)N(C)C[C@@H](OC)[C@H](C)CN(C(C)=O)[C@@H](C)CO2 ?
MLL AF4-AF9 inh: -3.0; FGF22 binding: inactive

What do the screens show for `OC[C@H]1[C@@H](c2ccccc2)C2(CN(CCC(F)(F)F)C2)N1Cc1cncnc1`?
MLL AF4-AF9 inh: -0.4; FGF22 binding: inactive

What do the screens show for `COc1ccc(NC(=O)Nc2ccc3c(c2)[C@@H]2C[C@H](CC(=O)N(C)C)O[C@@H](CO)[C@@H]2O3)cc1`?
MLL AF4-AF9 inh: 0.1; FGF22 binding: inactive

How did C[C@H](CO)N1C[C@H](C)[C@@H](CN(C)C(=O)c2ccc(N3CCN(C)CC3)cc2)OCc2cn(nn2)CCCC1=O do in these assays?
MLL AF4-AF9 inh: -0.2&-5.4; FGF22 binding: inactive

What do the screens show for `CN(C)C(=O)c1cccc(-c2ccc3c(c2)[C@H]2[C@H](CCN2C(=O)c2ccncc2)[C@@H](CO)N3C)c1`?
MLL AF4-AF9 inh: 1.2; FGF22 binding: inactive

Results for C[C@H]1CN([C@@H](C)CO)S(=O)(=O)c2ccc(C#CC3CCCCC3)cc2O[C@H]1CN(C)C(=O)Cc1ccncc1 ?
MLL AF4-AF9 inh: 14; FGF22 binding: inactive

Results for O=C(C[C@H]1CC[C@H](NS(=O)(=O)c2ccc(F)cc2)[C@H](CO)O1)NCCc1ccncc1 ?
MLL AF4-AF9 inh: 0.2; FGF22 binding: inactive

What do the screens show for `COc1ccc2c3c(n(C)c2c1)[C@H](CO)N(C)CC31CN(S(C)(=O)=O)C1`?
MLL AF4-AF9 inh: -1.9; FGF22 binding: inactive

What do the screens show for `COCCNC(=O)C[C@@H]1CC[C@@H]2[C@H](COC[C@@H](O)CN2C(=O)c2cc(Cl)cc(Cl)c2)O1`?
MLL AF4-AF9 inh: -32; FGF22 binding: inactive

How did Cc1noc(C)c1S(=O)(=O)Nc1ccc2c(c1)C(=O)N([C@@H](C)CO)C[C@H](C)[C@H](CN(C)C)O2 do in these assays?
MLL AF4-AF9 inh: -1.3; FGF22 binding: inactive

How did O=C(C[C@@H]1CC[C@@H](NC(=O)c2ccc(F)cc2)[C@@H](CO)O1)NCc1ccncn1 do in these assays?
MLL AF4-AF9 inh: -3.0; FGF22 binding: inactive

What do the screens show for `C[C@@H]1CN([C@H](C)CO)C(=O)c2cc(NS(=O)(=O)c3ccc(F)cc3)ccc2O[C@H]1CN(C)C`?
MLL AF4-AF9 inh: -1.8; FGF22 binding: inactive

Results for Cc1noc(C)c1NC(=O)N[C@@H]1CC[C@H](CC(=O)N2CCN(C)CC2)O[C@@H]1CO ?
MLL AF4-AF9 inh: 1.4; FGF22 binding: inactive

Results for COCC(=O)Nc1ccc2c(c1)C(=O)N(C)[C@H]1CC[C@H](CC(=O)N3CCc4ccccc4C3)O[C@@H]1CO2 ?
MLL AF4-AF9 inh: -6.3; FGF22 binding: inactive

What do the screens show for `CCC(=O)N(C)C[C@@H]1Oc2cc(-c3ccncc3)ccc2S(=O)(=O)N([C@@H](C)CO)C[C@H]1C`?
MLL AF4-AF9 inh: -3.5; FGF22 binding: inactive

What do the screens show for `C[C@@H](NC(=O)C[C@@H]1CC[C@H]2[C@@H](COC[C@@H](O)CN2Cc2ccc(C(F)(F)F)cc2)O1)c1ccccc1`?
MLL AF4-AF9 inh: 0.6; FGF22 binding: inactive

What do the screens show for `COc1ccc(NC(=O)Nc2ccc3c(c2)C(=O)N([C@@H](C)CO)C[C@@H](C)[C@H](CN(C)C(=O)Cc2ccccc2)OCCCC[C@H](C)O3)cc1`?
MLL AF4-AF9 inh: 1.2; FGF22 binding: inactive

Results for C[C@H](CO)N1C[C@H](C)[C@H](CN(C)S(=O)(=O)c2cn(C)cn2)Oc2ccc(NC(=O)CCN3CCOCC3)cc2CC1=O ?
MLL AF4-AF9 inh: -3.3; FGF22 binding: inactive

How did O=C(C[C@H]1CC[C@H]2[C@@H](COC[C@@H](O)CN2S(=O)(=O)c2ccc(F)cc2)O1)NCCN1CCCCC1 do in these assays?
MLL AF4-AF9 inh: 0.3; FGF22 binding: inactive

What do the screens show for `O=S(=O)(c1ccccc1)N1CCCCN2[C@@H](CO)[C@@H](c3ccc(C#Cc4ccccn4)cc3)[C@@H]2C1`?
MLL AF4-AF9 inh: 13; FGF22 binding: inactive

What do the screens show for `NCC[C@@H]1CC[C@@H](NS(=O)(=O)Cc2ccccc2)[C@@H](CO)O1`?
MLL AF4-AF9 inh: -0.8; FGF22 binding: inactive

Results for O=C(c1cccc(F)c1)N1C[C@H]2[C@@H](c3ccccc31)[C@H](CO)N2C(=O)C1CCCC1 ?
MLL AF4-AF9 inh: 1.4; FGF22 binding: inactive

How did C[C@@H]1CN([C@H](C)CO)C(=O)c2cc(-c3ccncc3)cnc2O[C@@H]1CN(C)C(=O)CN1CCOCC1 do in these assays?
MLL AF4-AF9 inh: -3.1; FGF22 binding: inactive

What do the screens show for `C[C@@H]1CCCCO[C@@H](CN(C)S(=O)(=O)c2ccc(F)cc2)[C@H](C)CN([C@@H](C)CO)C(=O)c2cc(NC(=O)NC3CCCCC3)ccc2O1`?
MLL AF4-AF9 inh: -2.6; FGF22 binding: inactive

What do the screens show for `COc1ccc(NC(=O)N(C)C[C@H]2OCCCC[C@H](C)Oc3ccc(NC(=O)Cc4ccccc4)cc3C(=O)N([C@@H](C)CO)C[C@@H]2C)cc1`?
MLL AF4-AF9 inh: 6.3; FGF22 binding: inactive

What do the screens show for `Cc1noc(C)c1S(=O)(=O)Nc1ccc2c(c1)C(=O)N([C@H](C)CO)C[C@H](C)[C@H](CN(C)Cc1ccc(C(=O)O)cc1)OCCCC[C@H](C)O2`?
MLL AF4-AF9 inh: -12; FGF22 binding: inactive

Results for Cc1ccc(S(=O)(=O)Nc2ccc3c(c2)CC(=O)N([C@@H](C)CO)C[C@H](C)[C@@H](CN(C)C(=O)NC(C)C)O3)cc1 ?
MLL AF4-AF9 inh: -1.8; FGF22 binding: inactive

Results for CCCNC(=O)N(C)C[C@H]1Oc2cc(-c3ccccc3)ccc2S(=O)(=O)N([C@@H](C)CO)C[C@H]1C ?
MLL AF4-AF9 inh: -2.4; FGF22 binding: inactive

Results for C[C@@H]1CCCCO[C@H](CN(C)Cc2ccccc2)[C@@H](C)CN([C@@H](C)CO)C(=O)c2cc(NC(=O)Cc3ccccc3)ccc2O1 ?
MLL AF4-AF9 inh: 1.8; FGF22 binding: inactive

How did C[C@@H]1CCCCO[C@H](CN(C)C(=O)Cc2ccccc2)[C@@H](C)CN([C@H](C)CO)C(=O)c2cc(NC(=O)Cc3ccccc3)ccc2O1 do in these assays?
MLL AF4-AF9 inh: 1.6; FGF22 binding: inactive

Results for Cc1noc(C)c1NC(=O)Nc1ccc2c(c1)CC(=O)N([C@H](C)CO)C[C@H](C)[C@H](CN(C)C(=O)Nc1ccc(F)cc1)O2 ?
MLL AF4-AF9 inh: 2.9; FGF22 binding: inactive

What do the screens show for `Cc1ccc(S(=O)(=O)N(C)C[C@@H]2OCc3ccccc3-c3ccccc3C(=O)N([C@H](C)CO)C[C@@H]2C)cc1`?
MLL AF4-AF9 inh: 1.6; FGF22 binding: inactive

What do the screens show for `C[C@H](CO)N1C[C@H](C)[C@H](CN(C)C(=O)Nc2ccc(F)cc2)Oc2c(NS(=O)(=O)c3ccc(Cl)cc3)cccc2C1=O`?
MLL AF4-AF9 inh: 0.9; FGF22 binding: inactive

What do the screens show for `COc1ccc(S(=O)(=O)N(C)C[C@H]2OCCCC[C@@H](C)Oc3ccc(NS(C)(=O)=O)cc3C(=O)N([C@@H](C)CO)C[C@@H]2C)cc1`?
MLL AF4-AF9 inh: 2.3; FGF22 binding: inactive

How did C[C@@H]1CN([C@@H](C)CO)C(=O)c2cc(NC(=O)c3ccncc3)ccc2O[C@@H](C)CCCCO[C@@H]1CN(C)S(=O)(=O)c1ccccc1 do in these assays?
MLL AF4-AF9 inh: -1.4; FGF22 binding: inactive

How did COc1ccc(S(=O)(=O)N(C)C[C@H]2Oc3ccc(NS(=O)(=O)c4cccs4)cc3CC(=O)N([C@@H](C)CO)C[C@@H]2C)cc1 do in these assays?
MLL AF4-AF9 inh: -1.9; FGF22 binding: inactive

Results for CCC(=O)N1C[C@@H](C)[C@@H](OC)CN(C)C(=O)c2cc(NC(=O)Nc3ccc(Cl)cc3)ccc2OC[C@@H]1C ?
MLL AF4-AF9 inh: 6.0; FGF22 binding: inactive

How did C[C@H]1CN([C@@H](C)CO)C(=O)c2cc(-c3cccc(C#N)c3)cnc2O[C@H]1CN(C)Cc1cncnc1 do in these assays?
MLL AF4-AF9 inh: -1.3; FGF22 binding: inactive

What do the screens show for `O=C(C[C@H]1C[C@@H]2c3cc(NC(=O)c4ccc5c(c4)OCO5)ccc3O[C@@H]2[C@@H](CO)O1)NCCc1ccccc1`?
MLL AF4-AF9 inh: -6.3; FGF22 binding: inactive

Results for Cc1ccccc1S(=O)(=O)N1[C@H](CO)[C@@H](c2ccc(C#CC3CCCCC3)cc2)[C@@H]1C#N ?
MLL AF4-AF9 inh: 1.2; FGF22 binding: inactive

Overlap with the part before: 3 entries, then new ones.
How did C[C@H]1CN([C@@H](C)CO)C(=O)c2cc(-c3cccc(C#N)c3)cnc2O[C@H]1CN(C)Cc1cncnc1 do in these assays?
MLL AF4-AF9 inh: -1.3; FGF22 binding: inactive

What do the screens show for `O=C(C[C@H]1C[C@@H]2c3cc(NC(=O)c4ccc5c(c4)OCO5)ccc3O[C@@H]2[C@@H](CO)O1)NCCc1ccccc1`?
MLL AF4-AF9 inh: -6.3; FGF22 binding: inactive

Results for Cc1ccccc1S(=O)(=O)N1[C@H](CO)[C@@H](c2ccc(C#CC3CCCCC3)cc2)[C@@H]1C#N ?
MLL AF4-AF9 inh: 1.2; FGF22 binding: inactive

How did C[C@@H]1CN([C@@H](C)CO)C(=O)Cc2cc(NC(=O)Nc3cccc4ccccc34)ccc2O[C@H]1CN(C)CC1CC1 do in these assays?
MLL AF4-AF9 inh: 7.3; FGF22 binding: inactive

Results for Cc1ccc(S(=O)(=O)NCC[C@H]2CC[C@@H](NC(=O)c3cccnc3)[C@@H](CO)O2)cc1 ?
MLL AF4-AF9 inh: -0.9; FGF22 binding: inactive

What do the screens show for `C[C@@H]1CN([C@@H](C)CO)S(=O)(=O)c2ccc(-c3cccc(C#N)c3)cc2O[C@@H]1CN(C)C`?
MLL AF4-AF9 inh: -2.0; FGF22 binding: inactive

Results for Cc1ccc(-c2cnc3c(c2)C(=O)N([C@@H](C)CO)C[C@H](C)[C@H](CN(C)C(=O)c2ccccc2)O3)cc1 ?
MLL AF4-AF9 inh: -5.8; FGF22 binding: inactive

What do the screens show for `C[C@@H]1CCCCO[C@@H](CN(C)Cc2ccc(C(=O)Nc3ccccc3N)cc2)[C@@H](C)CN([C@H](C)CO)C(=O)c2cc(NS(=O)(=O)c3cn(C)cn3)ccc2O1`?
MLL AF4-AF9 inh: -1.4; FGF22 binding: inactive

In the list so far, 3 have a Cl atom:
What do the screens show for `COCCNC(=O)C[C@@H]1CC[C@@H]2[C@H](COC[C@@H](O)CN2C(=O)c2cc(Cl)cc(Cl)c2)O1`?
MLL AF4-AF9 inh: -32; FGF22 binding: inactive

What do the screens show for `C[C@H](CO)N1C[C@H](C)[C@H](CN(C)C(=O)Nc2ccc(F)cc2)Oc2c(NS(=O)(=O)c3ccc(Cl)cc3)cccc2C1=O`?
MLL AF4-AF9 inh: 0.9; FGF22 binding: inactive

Results for CCC(=O)N1C[C@@H](C)[C@@H](OC)CN(C)C(=O)c2cc(NC(=O)Nc3ccc(Cl)cc3)ccc2OC[C@@H]1C ?
MLL AF4-AF9 inh: 6.0; FGF22 binding: inactive
